KCNQ2 pot: potentiators of rat KCNQ2 potassium channel; B-score at 10 µM; CHO-K1 KCNQ2, FluxOR thallium flux fluorescence; active compounds read high; 310,000 compounds, 0.54% hits; O88943;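 active means fluorescence ratio B-score at least 3 SD of library B-scores, with initial fluorescence B-score within 3 SD, cut at about 5.3 in these data; same plate scores as AID 2156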;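 further: B-score of peak minus minimum over baseline fluorescence ratio after K+ and Tl+ stimulus; positive B-score means potentiation of KCNQ2 with more thallium influx and brighter signal; only the inactives scoring about 0 or higher are listed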
Target sequence (O88943 whole entry, looked up): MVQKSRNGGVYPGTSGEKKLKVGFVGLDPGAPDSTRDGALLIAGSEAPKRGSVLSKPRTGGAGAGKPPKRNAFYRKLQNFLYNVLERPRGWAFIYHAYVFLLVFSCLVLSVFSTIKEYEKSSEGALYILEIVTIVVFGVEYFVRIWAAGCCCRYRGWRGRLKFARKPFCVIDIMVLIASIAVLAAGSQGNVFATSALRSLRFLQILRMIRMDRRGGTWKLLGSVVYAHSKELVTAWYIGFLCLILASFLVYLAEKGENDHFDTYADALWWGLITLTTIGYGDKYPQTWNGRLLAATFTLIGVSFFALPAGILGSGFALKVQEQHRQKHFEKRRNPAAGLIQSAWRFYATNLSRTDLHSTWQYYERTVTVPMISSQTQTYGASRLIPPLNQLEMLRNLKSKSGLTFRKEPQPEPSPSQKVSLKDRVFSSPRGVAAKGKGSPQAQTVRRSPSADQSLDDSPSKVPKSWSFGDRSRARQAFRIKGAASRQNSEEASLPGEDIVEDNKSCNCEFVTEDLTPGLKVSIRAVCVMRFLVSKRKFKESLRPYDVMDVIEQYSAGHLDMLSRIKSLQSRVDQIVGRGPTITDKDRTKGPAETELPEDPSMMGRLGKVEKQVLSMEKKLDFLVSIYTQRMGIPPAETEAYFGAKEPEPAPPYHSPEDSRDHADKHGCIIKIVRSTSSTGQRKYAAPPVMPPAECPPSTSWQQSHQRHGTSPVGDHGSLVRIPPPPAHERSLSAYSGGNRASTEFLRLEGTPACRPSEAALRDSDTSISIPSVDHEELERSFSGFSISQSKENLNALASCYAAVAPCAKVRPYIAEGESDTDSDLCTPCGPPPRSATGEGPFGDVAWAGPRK
KCNQ2 pot baseline: second read-out of KCNQ2 pot, no call of its own (marks repeat the call); B-score; compound at 10 µM; measured here: initial fluorescence intensity artifact check;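 brightness before thallium and not channel activity; 0 = typical well and far values either way flag optical interference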
* marks the source's active call; other numbers are inactive results; x = not tested or not shown. An excerpt; rates above refer to the full screens.

structure,KCNQ2 pot,KCNQ2 pot baseline
C=C(C)[C@@H]1CC=C(CN2CCC(CCOC)(C(=O)OCC)CC2)CC1,0.57,-0.08
C=CCNc1nc(C)c(CNc2c(C)cc(C)cc2C)nc1C#N,0.52,-0.89
COc1ccc(C(=S)N2CCN(C)CC2)cc1Br,1.85,0.53
Cc1ccc(C(=O)NC(=S)N2CCN(c3ccc([N+](=O)[O-])cc3)CC2)cc1,0.12,0.16
COc1ccc(Cn2c(C)ccc2C)cc1,0.8,-2.56
COc1ccc(OC)c(C2/C(=C(\O)c3ccc4c(c3)OCCO4)C(=O)C(=O)N2CC2CCCO2)c1 (stereo not given),0.2,-1.44
COc1cc(S(=O)(=O)N2CCOCC2)ccc1NC(=O)COC(=O)COc1ccccc1,0.67,0.59
CS(=O)(=O)N(CC(=O)Nc1ccc(F)cc1F)C1CCCCC1,0.06,-0.27
Cc1nc(SCC(=O)Nc2cc(C(N)=O)cc(C(N)=O)c2)c2c(C)c(C)sc2n1,0.42,0.28
COC(=O)c1c(-c2ccccc2)csc1NC(=O)CSc1ncnc2sc(C)c(C)c12,-5.57,x

Exported with values under each structure: 2 of the compounds above
Order of values – KCNQ2 pot	KCNQ2 pot baseline
- CS(=O)(=O)N(CC(=O)Nc1ccc(F)cc1F)C1CCCCC1
    0.06	-0.27
- Cc1nc(SCC(=O)Nc2cc(C(N)=O)cc(C(N)=O)c2)c2c(C)c(C)sc2n1
    0.42	0.28

Next records
structure,KCNQ2 pot,KCNQ2 pot baseline
CC1=C(C(=O)OCC2CCCO2)C(c2ccc(Cl)cc2)NC(=O)N1 (stereo not given),0.57,0.07
Cc1ccc(-n2c(C)cc(/C=N/NC(=O)c3ccncc3)c2C)c(C)c1,1.52,0.38
CCOC(=O)c1c(NC(=O)C2C3CCC(O3)C2C(=O)O)sc(C)c1-c1ccc(C)cc1 (stereo not given),0.14,0.01
CC(NC(=O)C1CCC(C(=O)NC(C)c2ccccc2)CC1)c1ccccc1 (stereo not given),0.11,0
CC1(C)CC=C(NNC(=O)c2cccnc2)C(=O)C1,0.39,-1.4
COC(=O)c1c(NC(=O)CC2SC(N)=NC2=O)sc2c1CCC(C(C)(C)C)C2 (stereo not given),2.46,1.01
CCC(C(=O)NCCCc1ccccc1)n1nc(C)c2c(C)n(-c3ccccc3)nc2c1=O (stereo not given),0.2,1.31
CSCCC(NS(=O)(=O)c1ccc(C)cc1)C(=O)N1CCN(C(C)=O)CC1 (stereo not given),1.55,-1.55
CCN(CC)C(=O)c1sc2nc(-c3ccncc3)[nH]c(=O)c2c1C,0.19,0.05
CCOc1cc(/C=C2/N=C(c3ccc(C(C)(C)C)cc3)OC2=O)cc(Cl)c1OS(C)(=O)=O,1.97,-1.98
O=C(Nc1ccc(S(=O)(=O)Nc2ncccn2)cc1)c1cncc(Br)c1,1.61,-0.67
Cc1cc(N2CCCCC2)nc2ccc(NC(=O)CCC(=O)NCCC(C)C)cc12,0.6,1.12
CCCC(=O)N1CCN(c2ccc(NC(=O)C(C)(C)C)cc2)CC1,0.17,-0.89
CCOc1ccc(OCC)c(NC(=O)CC2Oc3ccc(C)cc3NC2=O)c1 (stereo not given),0.29,-0.32
OC(CNC1CCCC1)COc1c(F)cc(Br)cc1F (stereo not given),0.75,0.71
COc1ccc(C(=O)Nc2ccnc(-c3cccnc3)n2)cc1,5.34*,1.61*
Cc1cc(C)cc(OCC(=O)OCCN2C(=O)c3ccccc3C2=O)c1,0.53,-3.68
Cc1cccc(C)c1NC1=NC2(CCCCC2)N=C(N)N1,0.32,0.35
Cc1ccc(S(=O)(=O)N2CCOCC2)cc1NC(=O)COC(=O)c1cccnc1Cl,0.01,-0.13
CCCN(CCC)S(=O)(=O)c1ccc(C(=O)N2CCN(C)CC2)cc1,0.72,1.23
COc1ccc(C(=O)NCC(=O)OCC(=O)c2ccc3c(c2)NC(=O)CO3)cc1,0.93,-0.38
CCOC(=O)c1[nH]cnc1C(=O)Nc1cccc(Cl)c1,1.01,-1.51
CCOc1ccc(C(=O)n2cc(C(=O)OC)c3ccccc32)cc1,0.1,-2.12
Cc1ccc(NC(=O)CSc2nc3sc(C)cc3c(=O)n2C)cc1,1.48,0.64
Cc1ccc2nc(SCC(=O)Nc3c(C)n(C)n(-c4ccccc4)c3=O)[nH]c2c1,0.17,-1.61
CC1=NN(c2cccc(F)c2)C(=O)/C1=C/c1ccc(N(C)C)cc1,1.57,-1.18
CCOC(=O)C1CCN(C(=O)CCc2ccc(S(=O)(=O)NC(C)C)cc2)CC1,0.01,0.26
O=C(N/N=C/c1ccncc1)c1cccc([N+](=O)[O-])c1,1.06,-1.95
Cn1c(=O)[nH]c(=O)c2c1nc(Br)n2Cc1ccccc1Cl,1.53,0.8
Cc1[nH]c(=O)[nH]c(=O)c1S(=O)(=O)N1CCCC(C(=O)NCc2ccc3c(c2)OCO3)C1 (stereo not given),0.82,-1.48
CCN(CC)CCN1C(=O)C2C(C(=O)Nc3ccc(Br)cc3)C3C=CC2(O3)C1C(=O)NC1CCCCC1 (stereo not given),0.99,0.6
CCOc1ccc(C)cc1S(=O)(=O)n1ccnc1,0.16,0.01
CNC(=O)c1ccc(NC(=O)C2CCN(c3ncnc4sc(C)c(C)c34)CC2)cc1,0.3,0.26
COc1ccc(-c2cc(-c3ccc(OC)c(OC)c3)n[nH]2)c(O)c1,0.03,0.05
CCOC(=O)Cc1csc(NC(=O)c2cc(=O)c3ccccc3o2)n1,1.86,-0.17
COc1ccc(C(=O)N/N=C/c2ccc(OC(=O)c3ccccc3)cc2)cc1,0.79,-0.85
Cc1c(C=O)c2ccccc2n1CC(=O)NCc1ccccc1,0.69,0.54
COc1cccc(Nc2ccc(-n3ccnc3)nn2)c1,0.44,0.18
COC(=O)c1c(C)oc2ccc(NS(=O)(=O)c3cc(OC)ccc3OC)cc12,0.4,1.86
COc1ccc(N=C2C(=O)N3c4c(cccc42)C(C)=CC3(C)C)cc1,1.16,0.59
COc1cccc2cc(C(=O)NCCc3ccccc3)c(=O)oc12,0.05,-1.4
Cc1ccc(CCNC(=O)C2CC(c3cc(C(F)(F)F)cc(C(F)(F)F)c3)=NO2)cc1 (stereo not given),0.79,-0.22
Cc1cc(Cl)c2oc(C(=O)N3CCN(C(=O)c4ccco4)CC3)c(C)c2c1,2.05,-2.01
CCn1cc(C(=O)OCC(=O)Nc2c(C)n(C)n(-c3ccccc3)c2=O)c(=O)c2ccc(C)nc21,2.07,-0.2
CCC1CCCCN1CCCNC(=O)CCCNC(=O)Cn1cnc2sc3c(c2c1=O)CCCC3 (stereo not given),1.38,0
CC(OC(=O)/C=C/c1ccc2ccccc2n1)C(=O)Nc1ccc(S(N)(=O)=O)cc1 (stereo not given),0.33,-0.29
CCOC(=O)c1sc(NC(=S)NC(=O)c2cccc(OC)c2)nc1C,2.78,-0.51
Cc1cccc(NC(=O)c2ccc3nccnc3c2)c1C,0.29,0.7
Cc1ccc(C(=O)Nc2nnc(-c3ccco3)o2)cc1C,1.64,-0.23
O=C(CSc1nc2ccccc2c(=O)n1-c1ccccc1)NCC1CCCO1 (stereo not given),0.77,1.02

Five entries picked at random from the list so far:
structure,KCNQ2 pot,KCNQ2 pot baseline
Cc1cccc(NC(=O)c2ccc3nccnc3c2)c1C,0.29,0.7
O=C(CSc1nc2ccccc2c(=O)n1-c1ccccc1)NCC1CCCO1 (stereo not given),0.77,1.02
COc1cccc2cc(C(=O)NCCc3ccccc3)c(=O)oc12,0.05,-1.4
Cc1ccc(C(=O)Nc2nnc(-c3ccco3)o2)cc1C,1.64,-0.23
CCn1cc(C(=O)OCC(=O)Nc2c(C)n(C)n(-c3ccccc3)c2=O)c(=O)c2ccc(C)nc21,2.07,-0.2

More records.
structure,KCNQ2 pot,KCNQ2 pot baseline
CCCc1cc(=O)[nH]c(SCC(=O)C(C)(C)C)n1,0.24,0.8
O=C(CN1CCN(S(=O)(=O)c2ccc(F)cc2)CC1)Nc1ccc(Cl)cn1,0.59,0.43
Cc1c(C)n(Cc2ccccc2)c2ccc(C(=O)NCCCN3CCOCC3)cc12,0.02,1.9
Cc1[nH]n(-c2ccccc2)c(=O)c1C=NCC1CCCO1 (stereo not given),1.41,0.67
COc1ccc(NC(=O)c2cc(C)on2)cc1,0.62,-0.72
CN(NC(=O)c1ccc(Cl)cc1)c1ncc(C(F)(F)F)cc1Cl,5.09,0.83
COCCNC(=O)c1ccccc1-c1nc(-c2ccccc2OC)no1,0.63,-2.41
Cc1cc(=O)[nH]c(SCC(=O)c2ccc(O)c(O)c2)n1,0.9,0
CCOC(=O)c1c(NC(=O)C2COc3ccccc3O2)sc2c1CC(C)(C)NC2(C)C (stereo not given),2.45,-0.55
CSc1nsc(SCC(=O)Nc2ccccc2F)n1,1.4,-0.86
COc1ccc(OCC(=O)NC2CC(C)(C)NC(C)(C)C2)cc1,0.67,-0.61
CC1CCN(CCOc2cccc(Br)c2)CC1,0.7,1.12
O=C(Cc1ccccc1)NCCSCc1ccco1,0.05,0.38
CC(=O)N1c2ccc(S(=O)(=O)N3CCC(C(=O)Nc4ccc(F)cc4)CC3)cc2CC1C (stereo not given),3.79,-2.13
CC(C)Cc1nnc(NC(=O)CC(=O)Nc2ccccc2C(=O)O)s1,1.33,-1.83
O=C(O)c1ccc2c(c1)C(=O)N(c1ccc(Nc3ccccc3)cc1)C2=O,1.13,-0.94
O=C(NC(Cc1ccccc1)C(=O)O)/C(=C\c1ccco1)NC(=O)c1ccccc1Br (stereo not given),0.61,0.63
CCOC(=O)c1cc(-c2ccccc2)sc1NC(=O)CSc1nnnn1C,0.56,0.07
COc1ccc(C(=O)NCCC(=O)NCc2cc(=O)n(C)c(=O)n2C)cc1,0.26,0.08
CC(=O)NC(CC(=O)OC(C)C(=O)Nc1ccc(Cl)cn1)c1ccccc1 (stereo not given),0.2,-0.32
O=C1c2ccccc2C(O)N1Cc1ccccc1Cl (stereo not given),0.9,0.51
Cc1ccc(S(=O)(=O)Cn2nnnc2C(CC(C)C)N2CCN(C)CC2)cc1 (stereo not given),0.79,2.68
CS(=O)(=O)N1CCCC(c2nc(-c3ccc(S(=O)(=O)NCc4ccccc4)cc3)no2)C1 (stereo not given),0.79,-1.84
Cc1ccc(Cn2c(Sc3ncccn3)nc3c2c(=O)[nH]c(=O)n3C)cc1,0.82,-0.11
CC(Oc1ccc(C(=O)NC2CCCCC2)cc1)C(=O)O (stereo not given),0.18,-0.46
O=C(CSCc1n[nH]c(=O)[nH]1)NCCOc1cccc(Oc2ccccc2)c1,0.17,-0.8
Cc1nn(CC(=O)N2CCC(C(N)=O)CC2)c(=O)c2nn(-c3ccccc3)c(C)c12,0.56,1.06
Cc1ccc(CN2CCN(CC(=O)NC(C)CCc3ccccc3)C2=O)cc1 (stereo not given),0.39,-0.82
Cc1ccc(S(=O)(=O)Nc2c(C)nc3nc[nH]n3c2=O)c(C)c1,1.11,-0.93
CC(=O)Nc1ccc(S(=O)(=O)N2CCC(C(=O)NCCc3ccc(Cl)cc3)CC2)cc1,0.54,0.21
COc1ccc(CNC(=O)CCCC(=O)n2nc(C)c3ccccc32)cc1,0.18,-0.39
CCCCn1c(N)c(N(CCOC)C(=O)C2CC(=O)N(Cc3ccc(C)cc3)C2)c(=O)[nH]c1=O (stereo not given),2.22,-1.32
O=C(O)c1cccc(NC(=O)c2cc(S(=O)(=O)N3CCOCC3)cs2)c1,0.69,-0.75
COc1cccc(NC(=S)N2c3ccccc3CC2C)c1 (stereo not given),1.57,-0.19
CC(=O)Nc1ccc(C(=O)N2CCCC2)cc1,1.26,-1.16
Cc1cc(C)n2nc(SC(C)C(=O)Nc3ccc(Cl)cn3)nc2n1 (stereo not given),0.02,-0.35
CCOC(=O)C1CCN(C(=O)CCc2nnc3ccc(N4CCC(C)CC4)nn23)CC1,0.52,-1.5
CSc1oc(-c2cccs2)nc1S(=O)(=O)c1ccccc1,1.28,-1.21
COc1ccc2nc(N3CCCC3)[nH]c2c1,0.1,0.27
COc1ccccc1C(=O)NNC(=O)c1cccc(O)c1,1.29,-0.38
COc1ccc(S(=O)(=O)N2CCN(C(=O)C3CCCO3)CC2)cc1 (stereo not given),0.34,0.74
O=C(NC1CCCCC1)N1CCN(C(=O)c2ccco2)CC1,0.85,-0.77
CC(C)CN(C(=O)C(C)N1C(=O)c2ccccc2C1=O)c1c(N)n(Cc2ccccc2)c(=O)[nH]c1=O (stereo not given),0.1,0.47
O=C(Nc1ccc2ccccc2c1)c1cccc(F)c1,1.9,1.19
O=C(NNc1ccc(F)cc1)c1c(F)cccc1Cl,0.76,1.56
COc1ccc(Br)cc1/C=N/NC(=O)Cn1nnnc1N,0.47,0.05
Cc1cc2c(cc1C)NC(=O)CC(C(F)(F)C(F)(F)C(F)(F)F)=N2,0.07,-0.67
COC(=O)c1sc(NC(=O)COc2ccccc2)nc1C,0.6,0.05
CCCOc1ccc(OCCSc2nnc(N)s2)cc1,0.16,1.32
S=C1NCN(Cc2cccnc2)CN1c1cccc(Cl)c1,0.35,2.63
CCOC(=O)c1ccc(-n2c(CN3CCN(CC)CC3)nc3ccc([N+](=O)[O-])cc3c2=O)cc1,0.26,-0.09
CC(O)[C@H]1CNC(=O)C(=O)N1CC(C)(C)C (stereo not given in full),0.72,0.01
